Assay outcomes deposited in PubChem by National Center for Advancing Translational Sciences (NCATS).
2A Renilla – FMDV 2A StopGo reporter, Renilla signal. Potency, µM (doses to about 57.5 µM), for inactives: top-dose signal change, negative = less light. HEK cells with a luciferase reporter of 2A StopGo recoding. AID 1745857. 0.32% of 120,000 active; active means well fitted falling curve with a large enough effect; inconclusive means small, poorly fitted or top-dose-only effect; inactive means no such curve, though single readings can be large or run the other way; note: nearly all actives have a fitted effect of over 55% in size; overnight with compound
2A firefly – lowers the firefly signal of an FMDV 2A StopGo reporter. HEK cells with a luciferase reporter of 2A StopGo recoding. Potency, µM (series often up to 57.5 µM), for the others: at the highest dose signal change, negative = less light. 0.23% of 120,000 active. AID 1745856; active = well fitted falling curve with a large enough effect; inconclusive = small, poorly fitted or top-dose-only effect; inactive = no such curve, though single readings can be large or run the other way; note: nearly all actives have a fitted effect of over 60% in size; overnight with compound
An asterisk follows results filed as active; ? = inconclusive; & = joins results of further samples; [ ] = another dose, or the depositor's remark. % is set by controls: 0 for no effect and ±100 for the full control effect; potency is the fitted concentration of half-maximal effect.

Below each SMILES – 2A Renilla, 2A firefly
- CC(C)C(NC(=O)c1ccccc1F)C(=O)NCc1cnn(-c2ccccc2)c1 (stereo not given)
 : 9%, 4%
- CCOc1cccc(/C=C/C(=O)c2ccc(Br)cc2)c1OC
 : 20%, 0%
- COc1ccc(-c2nsc(NC(=O)c3oc4cc(C)c(C)cc4c3C)n2)cc1
 : -13%, -15%
- CC(SCc1ccccc1)C(=O)c1c[nH]c2ccccc12 (stereo not given)
 : -24%, 0%
- C=CCNC(=O)CCNC(=O)c1ccc(C(C)(C)C)cc1
 : 6%, 41%[activator]
- CCOC(=O)c1oc2cc(OS(C)(=O)=O)ccc2c(=O)c1-c1ccc(OC)c(OC)c1
 : 3%, 10%
- Cc1cc(C)c2nc(N3CCCC(C(=O)NCc4ccccc4F)C3)sc2c1 (stereo not given)
 : -8%, -3%
- Cc1nc2scc(C)n2c(=O)c1S(=O)(=O)Nc1cccc(C(F)(F)F)c1
 : -9%, -10%
- COc1ccc(N2CCN(C(=O)NCc3noc4ccccc34)CC2)cc1
 : 10%, 6%
- COc1ccc(CCNC(=O)CSc2nnnn2-c2c(C)cccc2C)cc1OC
 : ?, ?
- COc1ccc(C2CC23CCC2(CC2c2ccc(OC)cc2)C3=O)cc1 (stereo not given)
 : 50%[activator], 0%
- COc1cc(SC)ccc1C(=O)Nc1nnc(C(F)(F)F)s1
 : -5%, 0%
- Cn1c(=O)c2c(nc(CN3CCOCC3)n2CCCO)n(C)c1=O
 : 1%, 1%
- CCCCC12CN3CCN(CC(C3)/C1=N\NC(=S)NC)C2
 : 5%, 1%
- Cc1cc(C)cc(NC(=O)Cn2c(=O)n(-c3cc(C)cc(C)c3)c(=O)c3oc4ccccc4c32)c1
 : -18%, -17%
- COc1ccccc1NC(=O)CN1CCCN(S(=O)(=O)c2ccc(Br)cc2)CC1
 : -7%, -20%
- O=C(Cn1c(=O)ccc2cc(S(=O)(=O)N3CCCC3)ccc21)NCc1ccc(Cl)cc1
 : 10%, 10%
- CC(=O)Nc1c(C)cccc1C(C)C
 : 8%, 3%
- CC(C)c1ccc2oc(-c3ccc(N)cc3)nc2c1
 : 10%, 0%
- COc1ccc(-c2noc(Cn3nc(-c4ccc(C)c(C)c4)c4ccccc4c3=O)n2)c(OC)c1
 : -9%, -5%
- CCCCCNC(=O)CCNC(=O)c1cccc(C)c1
 : 14%, 13%
- Cc1ccccc1CSc1nc(=O)c2c(n1C)NC(=O)CC2c1ccc(OCC(N)=O)cc1 (stereo not given)
 : -8%, -2%
- CC(C)Cn1c(N)c(-c2csc(Nc3ccccn3)n2)c(=O)n(C)c1=O
 : -11%, 17%
- Cc1cccc(C)c1NC(=O)NCCc1c[nH]c2ccccc12
 : 25%&-3%, 2%&1%
- CCOc1ccc(Oc2ncnc3c2cnn3-c2ccccc2)cc1
 : 1%, 0%
- COc1cccc(NC(=O)CSc2nc(-c3ccccc3)nc3c2Cc2cc(Cl)ccc2O3)c1
 : -5%, -13%
- Cc1c(C(=O)N2CCCCC2)c(S(=O)(=O)N2c3ccccc3CC2C)c(C)n1C (stereo not given)
 : 3%, -2%
- CN(C)c1ccc(NC(=O)c2ccc(C#N)cc2)cc1
 : 15%, 175%[activator]
- Cc1ccc(CCCOC(=O)C[N+]2(C)CCOCC2)cc1
 : -3%, -1%
- O=C(CC1C(=O)OCCN1Cc1ccccc1)Nc1cccc(C(F)(F)F)c1 (stereo not given)
 : 63%[activator], 3%
- COC(=O)c1cccc(NC(=O)CSc2nc(=O)[nH]nc2C)c1
 : 6%, 39%[activator]
- O=C(NC1CCCC1)C12CC3CC(C1)CC(c1ccccc1)(C3)C2
 : ?, ?
- CS(=O)(=O)N(CC(=O)N1CCc2ccccc2C1)c1ccccc1Cl
 : 7%, -2%
- CC(Sc1nc2ccccc2o1)C(=O)Nc1ccc(Cl)cc1 (stereo not given)
 : 12%, 167%[activator]
- CCN(CC)S(=O)(=O)c1cc(-c2ccc(=O)n(CC(=O)Nc3ccccc3)n2)ccc1C
 : 26%, 13%
- COc1ccc(C2C3=C(CCCC3=O)Nc3nc(SCc4ccc(C(=O)O)cc4)nn32)cc1 (stereo not given)
 : -2%, 5%
- O=S(=O)(/N=C/c1cccs1)c1ccccc1
 : 9%, 3%
- CCCOc1ccc(/C=C/C(=O)c2cc(OC)c(OC)c(OC)c2)cc1
 : ?, ?
- Cc1ccc(CNC(=O)CS(=O)(=O)Cc2nc(-c3ccccc3C)oc2C)cc1
 : -1%, -13%
- COc1ccc(NC(=O)CSc2nnc(Cc3cccn3C)n2-c2ccc(F)cc2)cc1OC
 : 3%, -1%
- Cc1cn2c(=O)cc(COc3cccc(NC(=O)c4ccccc4Cl)c3)nc2s1
 : -10%, 7%
- COc1ccc(Nc2ncc3c(n2)CCN(Cc2ccc(Br)s2)C3)c(OC)c1
 : 29%, 26%
- COc1ccc(NC(=O)Cn2nc(Cc3ccncc3)c3ccccc3c2=O)c(OC)c1
 : -22%, -9%
- Cc1ccc(C)c(/C=C/c2onc(C)c2S(=O)(=O)N2CCCC(C(=O)NC(C)(C)C)C2)c1 (stereo not given)
 : 15%, -1%
- CCCN(CCC)C(=O)CCCC(=O)N(C)Cc1ccsc1
 : 1%, -2%
- CCOc1ccc(CNC(=O)CCC(=O)N2Cc3ccccc3Oc3ncccc32)cc1
 : -11%, -10%
- CS(=O)(=O)c1nc(S(=O)(=O)c2ccc(Cl)cc2)c(NCc2ccccc2)s1
 : 163%[activator], -16%
- CCOC(=O)c1cccc(NC(=O)Cn2c(=O)c3cccn3c3ccccc32)c1
 : 0%, -1%
- CCC(CC)c1nnc(NC(=O)c2ccc3ccccc3n2)s1
 : 0%, 181%[activator]
- COc1ccc(Br)cc1C(=O)Nc1cccc2ccc(C)nc12
 : -8%, -12%
- N#CCSc1ccnc(SCC#N)n1
 : 5%, 8%
- O=C(Nc1c(NC2CCCC2)c2ccccc2oc1=O)c1ccc2c(c1)OCO2
 : -4%, 35%
- Cc1ccc(NC(=O)c2oc3ccccc3c2NC(=O)c2ccc(F)c(F)c2)cc1
 : -6%, 7%
- CCCc1noc(-c2cc(S(=O)(=O)NCCc3ccccc3)ccc2OC)n1
 : 156%[activator], 13%
- O=C(c1ccc2c(c1)OCO2)N(Cc1cccs1)C1(C(=O)NC2CCCC2)CCCCC1
 : 17%, -28%
- O=c1oc2ccccc2c(NCc2ccccc2)c1NS(=O)(=O)c1ccc(F)c(F)c1
 : 22%, -7%
- COc1ccc2nc(NS(=O)(=O)c3ccc(C)cc3)c(Nc3cc(Cl)ccc3OC)nc2c1
 : -22%, -23%
- O=C(c1cc2ccccc2oc1=O)N1CCN(c2ccc(F)cc2)CC1
 : 0%, -11%
- O=C(NCCCN1CCCC1)c1cc2cc(F)ccc2[nH]1
 : -15%, -4%
- Cn1c(SCC(=O)Nc2ccc(F)cc2)nc2c([nH]c3ccccc32)c1=O
 : -3%, -11%

(more compounds)
canonical_smiles | 2A Renilla | 2A firefly
COc1ccc(NC(=O)Cn2ccn(-c3ccccc3)c(=O)c2=O)cc1 | -5% | 3%
CCCN1CCN(CCCNC(=O)c2cnn(-c3ccc(F)cc3)c2-n2cccc2)CC1 | -8% | -11%
O=C(O)CCNS(=O)(=O)c1ccc(F)c(Cl)c1 | 2% | 6%
CCOc1ccc(C(F)(F)F)cc1N | -1% | 3%
COc1ccc(C(=O)CSc2nnc(Nc3ccccc3OC)s2)c(OC)c1 | 15% | 26%
CCN(c1ccccc1)S(=O)(=O)c1ccc(NC(=O)c2cc(=O)c3cc(C)cc(C)c3o2)cc1 | -15% | -15%
Cc1nc(N(C)C)ncc1C(=O)NCc1ccc(Cl)cc1 | 10% | 13%
COc1ccc(-c2cn3nc(N4CCCC(C(=O)NCc5ccccc5C)C4)sc3n2)cc1 (stereo not given) | ? | 18%
COc1ccc(S(=O)(=O)Oc2ccc3c(c2)O/C(=C\c2ccc(OC)c(OC)c2)C3=O)cc1 | 2% | -6%
Cc1cc(C)c(NC(=O)Nc2csc3c2CCCC3)c(C)c1 | 6% | -5%

Copied from above (2 entries):
canonical_smiles | 2A Renilla | 2A firefly
COc1ccc(NC(=O)Cn2ccn(-c3ccccc3)c(=O)c2=O)cc1 | -5% | 3%
CCCN1CCN(CCCNC(=O)c2cnn(-c3ccc(F)cc3)c2-n2cccc2)CC1 | -8% | -11%

Continued.
canonical_smiles | 2A Renilla | 2A firefly
Cc1cc(C)n(C(C)CC(=O)Nc2ccc(Cl)cc2C)n1 (stereo not given) | -11% | -16%
CC1(C)NC(=O)N(CCC(=O)Nc2cccc3cccnc23)C1=O | -1% | 10%
COc1cc(C(=O)Nc2ccc3oc(C)nc3c2)cc(OC)c1OC | 70%[activator] | 160%[activator]
O=C(Nc1ccc(F)cc1F)c1ccc(-n2cnc3cccnc32)cc1 | -6% | 90%[activator]
CCOc1ncccc1CNC(=O)c1cc2cc(Cl)ccc2nc1C | 7% | 0%
Cc1ccc(CNC(=O)c2c(Nc3ccccc3C)sc(C(=O)c3ccc(F)cc3)c2N)cc1 | ? | -27%
O=C(CSc1nc2ccccc2o1)NC(=O)NC1CCCC1 | 3% | 9%
COc1ccc(-n2c(=O)c3ccccc3n(CC(=O)NCCc3ccccc3)c2=O)c(OC)c1 | 16% | -4%
CCOc1ncccc1C(=O)N1CCN(CC(=O)Nc2ccccc2Cl)CC1 | 2% | 1%
COc1ccccc1CNC(=O)CCC1N=C2c3ccccc3N=C(SCC(=O)Nc3ccc(N(C)C)cc3)N2C1=O (stereo not given) | 81%[activator] | 24%
Cc1cccc(NS(=O)(=O)c2nnc(NC(=O)C3CCCCC3)s2)c1 | 33%[activator] | -14%
O=C(Nc1ccc(F)cc1)C1CCN(S(=O)(=O)c2ccc3c(c2)CCCN3C(=O)C2CCC2)CC1 | 5% | ?
O=C(O)C1CCCN(C(=O)c2cccc(C(F)(F)F)c2)C1 (stereo not given) | -8% | 4%
Cc1cc(C)cc(NS(=O)(=O)c2ccc(-c3cc(C)no3)cc2)c1 | 65%[activator] | ?
CCCOc1ccc(Cn2c(SCC(=O)NC(C)(C)C)nc3c(sc4ncccc43)c2=O)cc1 | -3% | 1%
CCOC(=O)NC1(C(F)(F)F)NC(=O)N(c2ccc(C)c(C)c2)C1=O (stereo not given) | 2% | 14%
CCCn1nc(C(=O)NCC2COc3ccccc3O2)c2ccccc2c1=O (stereo not given) | 10% | 2%
COc1ccc(C(C)=O)cc1CC(=O)Nc1cc(S(C)(=O)=O)ccc1C | -7% | -12%
COc1ccc(NC(=O)Nc2c(NC3CCCCC3)c3ccccc3oc2=O)c(OC)c1 | 18% | -11%
COc1cccc(CNC(=O)c2cc3cc(OC)ccc3[nH]2)c1 | 11% | 7%
COc1ccc(C)cc1NC(=O)c1nn(C)c(=O)c2ccccc12 | 1% | -1%
CCCSCCCNC(=O)C1CCN(c2nn3cc(-c4ccc(F)cc4)nc3s2)CC1 | -7% | 18%
COc1ccc(N(C(=O)C23CC4CC(CC(C4)C2)C3)C2C=CS(=O)(=O)C2)cc1 (stereo not given) | 6% | -6%
COc1ccc(-c2cc3ccc(O)c(CN4CCCC(C)C4)c3oc2=O)cc1OC (stereo not given) | 47%[activator] | 0%
CCn1c(SCC(=O)NC2CCCc3ccccc32)nnc1C1CC1 (stereo not given) | -9% | 1%
O=C(CCc1nnc2n(Cc3ccccc3Cl)c(=O)c3ccccc3n12)Nc1ccc(F)cc1 | 1% | 15%
CCCOc1cc(C)c(Cl)cc1S(=O)(=O)N1CCCCC1C (stereo not given) | 135%[activator] | -5%
Cc1cc(=O)oc2c(C)c(OCc3nc(-c4cccc(Cl)c4)no3)ccc12 | -3% | 5%
C/C=C/C=C/C(=O)Nc1sccc1C#N | 0% | 66%[activator]
CCCC12CN3CC(C)(CN(C1)C3c1cn(CC)c3ccccc13)C2=O (stereo not given) | -4% | -4%
Cc1ccc(-n2ncc3c(NCCc4ccc(S(N)(=O)=O)cc4)ncnc32)cc1 | -3%&-3% | 50%&52%[activator]
CC1CCN(c2ccc(-c3cccc(NS(=O)(=O)c4ccc(Cl)s4)c3)nn2)CC1 | 85%&72%[activator] | 182%&158%[activator]
CCN(CC)C(=O)c1ccc(NC(=O)Cn2nc(-c3ccccc3)c3ccccc3c2=O)cc1 | -5% | -2%
CCC(=O)Nc1ccccc1-c1nc2ccccc2n(C(CC)C(=O)Nc2cccc(C(C)=O)c2)c1=O (stereo not given) | -4% | 17%
Clc1ccc(CSc2nnc([C@@H]3CCCN3)o2)cc1Cl | 3% | 17%
COc1cccc(CNC(=O)CCc2c(C)c3cc4c(C)coc4c(C)c3oc2=O)c1 | -2% | -16%
O=C(O)C(c1c(-c2ccccc2)[nH]c2ccccc12)N1CCN(Cc2ccccc2)CC1 (stereo not given) | 0% | 25%
Cc1ccc(C)c(NC(=O)CSC2=Nc3ccccc3N=C(c3ccc(F)cc3)C2)c1 | -9% | 5%
O=C(CSc1nc2c([nH]c3ccccc32)c(=O)n1-c1ccccc1)N1CCCC1 | -18% | -25%
CCCCc1ccc(C(=O)N/C(=C\c2ccc(C)cc2)C(=O)NC2CCCCC2)cc1 | -12% | -15%

Another view of 4 compounds above:
> CCN(CC)C(=O)c1ccc(NC(=O)Cn2nc(-c3ccccc3)c3ccccc3c2=O)cc1
  2A Renilla: -5%
  2A firefly: -2%
> CCC(=O)Nc1ccccc1-c1nc2ccccc2n(C(CC)C(=O)Nc2cccc(C(C)=O)c2)c1=O (stereo not given)
  2A Renilla: -4%
  2A firefly: 17%
> Clc1ccc(CSc2nnc([C@@H]3CCCN3)o2)cc1Cl
  2A Renilla: 3%
  2A firefly: 17%
> COc1cccc(CNC(=O)CCc2c(C)c3cc4c(C)coc4c(C)c3oc2=O)c1
  2A Renilla: -2%
  2A firefly: -16%

An excerpt; rates above refer to the full screens.
